Screening results deposited in PubChem by National Center for Advancing Translational Sciences (NCATS).
CtBP-E1A inh – blocks the CtBP interaction with E1A | AlphaScreen GST-E1A/His-CtBP binding, 1536-well; stronger effect = lower value; control for the full effect not named in the record | activity change, % (concentration not given with the values) | 0.49% of 340,000 active | AID 651724; in the data active means activity change below about -65%; inconclusive means about -30% to -65%; inactive means above about -30%; note: % is set by controls: 0 for no effect and ±100 for the full control effect
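AlphaScreen with 125 nM GST-E1A and 125 nM His-CtBP (5X stocks) in Tris pH 8.0, 300 mM NaCl, BSA, Tween 20, TCEP. Compounds preincubated 2 h at 37 deg C, then glutathione donor/nickel acceptor beads added for 1 h at 37 deg C in dark.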
D2 agonist – activates the human D2 dopamine receptor; DiscoveRx PathHunter D2 beta-arrestin, luminescence, 90 min; 100% = 57 uM dopamine signal; 0.084% of 360,000 active; AID 624465; activation, % (no concentration beside the values); in the data active = activation above about 40%; inconclusive = about 15% to 40%; inactive = below about 15%; note: compound concentration not given in the record; the text of the record calls up to 30% inactive
Target sequence (P14416 whole entry, looked up): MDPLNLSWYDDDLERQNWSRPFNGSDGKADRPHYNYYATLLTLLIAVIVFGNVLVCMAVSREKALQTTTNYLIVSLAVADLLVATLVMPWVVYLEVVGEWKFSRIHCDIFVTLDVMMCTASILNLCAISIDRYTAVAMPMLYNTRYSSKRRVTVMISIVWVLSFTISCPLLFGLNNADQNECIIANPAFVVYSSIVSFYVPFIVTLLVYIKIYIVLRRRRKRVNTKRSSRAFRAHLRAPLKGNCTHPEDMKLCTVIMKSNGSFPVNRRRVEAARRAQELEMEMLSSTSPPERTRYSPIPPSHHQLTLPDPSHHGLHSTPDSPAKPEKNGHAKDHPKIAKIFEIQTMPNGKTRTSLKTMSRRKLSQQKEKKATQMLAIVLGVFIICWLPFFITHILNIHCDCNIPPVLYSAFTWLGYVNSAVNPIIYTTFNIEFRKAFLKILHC
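Agonist mode: compounds alone added to overnight-plated D2 PathHunter cells for 90 min at 37 C, with 57 uM final dopamine (EC100) defining full response. Beta-arrestin recruitment detected by chemiluminescent reagent, read after 1 h at ambient temperature.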
PINK1 modulator – modulators of PINK1 expression. Potency, µM (doses to about 76.6 µM), for inactives: at the highest dose activation (PINK1 increase), actives largely listed as activators. AID 624263. PINK1 immunofluorescence, high-content cytometry, 24 h. 0.2% of 410,000 active; active = well fitted activation curve with a large enough effect; inconclusive = small, poorly fitted or top-dose-only effect; inactive = flat fitted curve, though single readings scatter; cell line not stated here;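 note: potency is the fitted concentration of half-maximal effect; % of control where 0% means no effect; nearly all actives have a fitted effect of over 65% in size; a mitochondrial uncoupler was the plate control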
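Stable cell line, 250 cells/well, 12 h attachment; compounds pinned at 5 concentrations, 24 h; CCCP control. Fixed with nuclear dye, primary antibodies 12 h at 10 degrees C, secondary plus cell stain; laser-scanning cytometer read.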
Six1-Eya2 blk – inhibitors of human Six1/Eya2 interaction. Q15475+O00167. activity change, % (no concentration beside the values). 0.56% of 360,000 active. AlphaScreen GST-Six1/His-Eya2 binding, biochemical; stronger effect = lower value; control for the full effect not named in the record. AID 651725; in the data active = activity change below about -65%; inconclusive = about -30% to -65%; inactive = above about -30%; note: % is set by controls: 0 for no effect and ±100 for the full control effect; compound concentration not given in the record
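GST-Six1 + His-Eya2 (5X stock: 250/500 nM); Tris pH 8.0, 300 mM NaCl, 0.05% BSA, 0.02% Tween 20; GSH donor/Ni acceptor beads; 1 h 37 °C dark; AlphaScreen readout.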
TRPML1 inh – human mucolipin-1 channel inhibition; 0.02% of 390,000 active; TRPML1-inducible cells, Ca2+ dye fluorescence, FDSS; stronger effect = lower value; inhibition of EC80 agonist-evoked calcium signal; activity change, negative = inhibition, % (concentration not given with the values); Q9GZU1; in the data active means activity change below about -50%; inconclusive means about -30% to -50%; inactive means above about -30%;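 note: stimulus is agonist 54-4 at its EC80 concentration; % is set by controls: 0 for no effect and ±100 for the full control effect; compound concentration not given in the record; the text of the record puts the active cut at -80%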
Target sequence (Q9GZU1 whole entry, looked up): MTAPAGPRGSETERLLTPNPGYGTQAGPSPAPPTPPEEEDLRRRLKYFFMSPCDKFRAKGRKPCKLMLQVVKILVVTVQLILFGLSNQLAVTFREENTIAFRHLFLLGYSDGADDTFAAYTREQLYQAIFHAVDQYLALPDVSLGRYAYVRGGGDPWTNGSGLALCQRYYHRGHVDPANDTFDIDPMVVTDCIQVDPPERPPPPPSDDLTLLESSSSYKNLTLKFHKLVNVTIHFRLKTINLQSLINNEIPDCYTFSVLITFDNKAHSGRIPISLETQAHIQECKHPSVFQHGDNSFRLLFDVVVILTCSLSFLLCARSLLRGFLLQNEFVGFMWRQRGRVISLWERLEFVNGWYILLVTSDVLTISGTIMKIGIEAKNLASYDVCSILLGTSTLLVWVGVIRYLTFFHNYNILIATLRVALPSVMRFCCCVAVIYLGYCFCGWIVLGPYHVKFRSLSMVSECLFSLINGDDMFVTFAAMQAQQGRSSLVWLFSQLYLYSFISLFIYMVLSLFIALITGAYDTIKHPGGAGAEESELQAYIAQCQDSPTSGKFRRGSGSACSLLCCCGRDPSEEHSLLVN
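Calcium fluorescence in TRPML1-DL cells induced overnight with Tet: a 110 s read after compound pin addition, then a 110 s antagonist read after challenge with 54-4 at 4 uM final (EC80).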
TRPML1 ag – agonists of human TRPML1 channel. Q9GZU1. TRPML1-expressing cells, Ca2+ dye fluorescence, FDSS; host cell line not named in the record; reference of the full effect not given here. activation, % (test concentration not listed). 0.12% of 410,000 active; in the data active = activation above about 50%; inconclusive = about 30% to 50%; inactive = below about 30%; note: 0% is about no effect; the text of the record puts the active cut at 80%
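In this qHTS format, compounds were pin-transferred onto Ca8-dye-loaded TRPML1-DL cells induced with Tet overnight, and intracellular Ca2+ fluorescence was recorded kinetically for 110 s after a 10 s baseline. A subsequent 4uM final 54-4 (EC80) addition followed by a second 110 s read served as the antagonist phase.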
* hit, by the source's call; ? = inconclusive; . = no result given; [ ] = another dose, or the depositor's remark.

SMILES | CtBP-E1A inh | D2 agonist | PINK1 modulator | Six1-Eya2 blk | TRPML1 inh | TRPML1 ag
Cc1ccc(NC(=O)c2cccc(C(=O)OC(C)C)n2)c(Br)c1 | 8 | -6.2 | 4.8% | 13 | -15 | 4.1
O=C(NCc1ccccc1)Nc1cccn(Cc2ccccc2Cl)c1=O | -4 | -3.3 | 0.9% | -10 | -2 | 5.8
CSCC[C@H](NC(=O)N1CCn2c1nc1ccccc12)C(=O)NC1CCCCC1 | 0 | 2.3 | 12% | 0 | 7 | -0.9
CC(=O)c1ccc(NC(=O)COC(=O)c2ccccc2N=Nc2ccc(N(C)C)cc2)cc1 | 0 | ? | -0.6% | -68* | 18 | 1.8
O=C(NCc1ccc2c(c1)CCN2C(=O)c1ccncc1)c1ccccc1Br | . | . | -1.5% | . | 8 | 2.1
Cc1ccc(C)c(SCc2noc(C(=O)NCC3CCCO3)c2C(=O)O)c1 (stereo not drawn) | 3 | 0.3 | -0.3% | 1 | 28 | -0.8
CCC(=O)C1=C(c2ccc(OC)c(OC)c2)N(C(=O)CC)n2c(CC)nnc2S1 | . | . | -0.2% | . | 10 | 3.2
Cn1c(=O)c(C(=O)CN2CCOCC2)c(N)n(Cc2ccccc2)c1=O | -4 | -4.2 | -1.4% | -1 | 12 | -0.3
COc1cccc(CNC(=O)c2cc(C)nc3c2c(C)nn3-c2ccc(C)cc2)c1 | . | . | 3.9% | . | -7 | 0.1
CCOc1ccc(N2CC(c3nc(-c4cc(OC)c(OC)c(OC)c4)no3)CC2=O)cc1 (stereo not drawn) | . | . | 1.5% | . | -14 | 1.4
CCC(C)C1C(C#N)=C(N)OC2=C1C(=O)CC(C)(C)C2 (stereo not drawn) | 0 | -5.4 | 9.0% | -2 | 3 | -0.1
COc1cccc(N2C(=O)N(c3ccccc3)C3CS(=O)(=O)CC32)c1 (stereo not drawn) | 6 | -0.1 | 14%[38.3 µM] | 3 | -1 | -0.4
COc1ccc2oc3cc(Cl)ccc3c(=O)c2c1 | 18 | -1.9 | 0.3% | 5 | . | -0.7
CCOC(=O)C1CCCN(C(=O)c2cc(Cl)ccc2Cl)C1 (stereo not drawn) | 3 | -0.2 | . | 4 | -5 | 0.2
C=CCN1C(=O)c2ccc(C(=O)N3CCC(C(N)=O)CC3)cc2C1=O | -11 | 2.2 | -0.1% | 2 | 24 | 0.3
CC(=O)Cc1nsc(NC(=O)c2ccc(Cl)cc2Cl)n1 | 0 | -2.3 | 1.5% | -5 | 1 | -0.7
Cc1ccc(NC(=O)CSc2nnc(Cc3ccccc3)o2)cc1 | 7 | -2.5 | 0.5% | 5 | -5 | 1.2
CCCc1nc2oc3c(NCCN(C)C)ncnc3c2c2c1CCCC2 | -14 | -2.1 | -0.3% | -7 | 0 | 1.5
Cc1ccc(OCCNC(=O)c2ccccc2SCC(=O)N2CCCC2)cc1 | 2 | -2.3 | -0.8% | 5 | -4 | -1.1
Cc1ccc(S(=O)(=O)N(C)/N=C/c2ccc(N(C)C)cc2)cc1 | -11 | 3.7 | 1.6% | -14 | 7 | -0.1
C=CCSc1nnc(NC(=O)C2CC(=O)N(Cc3ccc(C)cc3)C2)s1 (stereo not drawn) | -4 | -1.7 | -0.6% | 4 | -10 | 0.2
Cc1ccc2c(c1)C(c1ccccc1)N(C(=O)C(C)C)CC(=O)N2 (stereo not drawn) | 2 | -4.3 | 0.0% | 1 | 11 | -1.1
COc1ccc(NC(=O)COc2cccc(C(F)(F)F)c2)cn1 | 6 | -0.7 | -1.1% | -4 | 3 | -0.5
COc1ccc(-n2cc(-c3ccccc3)c3c(NN4CCOCC4)ncnc32)cc1 | -8 | -5.0 | -1.7% | -10 | 49 | 0.8
Cc1nn(C(C)C(=O)NC2CCC(C)CC2)c(=O)c2cc3sccc3n12 (stereo not drawn) | . | . | 0.2% | . | -1 | 0.4
CCn1ncc(C2=NOC(C(=O)NCCc3ccccc3)C2)c1C (stereo not drawn) | 10 | 9.0 | 11%[38.3 µM] | 4 | -15 | 0.8
C=CCc1ccccc1OCCSc1nc2ccc([N+](=O)[O-])cc2s1 | 1 | -0.4 | 1.3% | -17 | 47 | 3.0
CCn1ccnc1CN(C)C(=O)C1CCC(=O)N(Cc2cccc(F)c2)C1 (stereo not drawn) | -9 | -2.0 | -0.2% | 6 | 8 | 0.4
O=C(NCC(c1ccco1)N1CCN(c2ccccc2F)CC1)C(=O)NC1CCCC1 (stereo not drawn) | 4 | -1.8 | 3.0% | 1 | 16 | 0.8
Cc1ccc(-c2csc(NC(=O)c3cccc(N4C(=O)CCC4=O)c3)n2)o1 | -7 | -4.9 | 1.4% | -6 | -2 | -0.9
CCOC(=O)C1(CCCc2ccccc2)CCN(Cc2ccn[nH]2)CC1 | -8 | -1.6 | -0.6% | -10 | 3 | 0.4
Cc1ccc(CNC(=O)CN(c2cc(C)cc(C)c2)S(=O)(=O)c2c(C)[nH]c(=O)[nH]c2=O)cc1 | . | . | 3.5% | . | -13 | -0.7
Nc1n[nH]c(=S)n1/N=C1/C(=O)Nc2ccccc21 | . | -5.9 | 2.8% | ? | 9 | -0.2
Cc1ccc2[nH]c3c(c2c1)CN(C(=O)CN1CC(C)OC(C)C1)CC3 (stereo not drawn) | -6 | -0.3 | -0.5% | -6 | -15 | -0.1
O=C(NC(=S)Nc1ccc(O)cc1)C1CCCC1 | . | 0.2 | -1.7% | -2 | -15 | -0.2
O=C(NCC1CCCCC1)c1cccc(S(=O)(=O)NCc2cccnc2)c1 | -5 | -5.3 | 2.7% | 1 | -20 | -0.7
CCOCCCNC(=O)c1cc(Nc2ccc(OC)cc2OC)nc2ccccc12 | -2 | 7.6 | 2.8% | -6 | ? | 1.0
Cc1cccc(C(=O)Nc2ccc3c(c2)C(=O)NC3=O)c1 | -1 | -3.8 | 6.3% | -9 | -14 | -1.3
O=C(NCCc1ccccc1)c1ccc2c(c1)N(Cc1ccc(F)cc1)C(=O)c1ccccc1S2(=O)=O | . | . | 1.4% | . | -10 | 1.2
CCCCn1c(CCc2ccccc2)nc2cc3[nH]c(=O)c(C(C)C)nc3cc21 | -4 | -2.1 | 0.9% | 3 | 41 | 1.5
Cc1ccc(CN2C(=O)c3ccccc3Sc3ccc(C(=O)OCc4ccco4)cc32)cc1 | . | . | 2.9% | . | 59 | 1.7
CCOc1ccccc1NC(=S)NCCc1ccccc1 | . | -5.8 | 0.2% | -4 | -8 | 1.8
COC(=O)Cn1c2[n+](c3ccccc31)CC(O)CS2 (stereo not drawn) | 5 | -3.4 | 0.6% | 5 | 1 | -0.7
Cc1c(C)c2c(OCC(=O)NCc3cccnc3)cc3c(c2oc1=O)CCC(C)(C)O3 | -3 | -4.8 | 0.7% | 1 | . | .
CCOC(=O)Nc1sc2c(c1C#N)CCCC2 | 0 | -2.0 | 3.8% | -2 | -9 | -0.3
CN(C)S(=O)(=O)c1ccc(C(=O)Nc2ccc(CCC(=O)N3CCCC3)cc2)cc1 | 0 | 1.5 | 1.7% | 0 | -5 | -1.2
Cc1[nH]c2ccccc2c1/C=N/NC(=O)c1ccc(N)cc1 | -3 | -6.5 | 0.9% | -2 | . | .
CCOC(=O)N1CCN(C(=O)c2ccc(OCC)cc2)CC1 | -6 | -4.1 | 0.6% | 5 | -15 | 0.7
COc1cccc(C2=NN(C(=O)C3CC3)C(O)(C(F)(F)F)C2)c1 (stereo not drawn) | -4 | -1.6 | 5.2% | -2 | 8 | 0.1
Cc1ccccc1C(=O)N1CCC(C(=O)NN2C(=O)NC3(CCC(C)CC3)C2=O)CC1 (stereo not drawn) | . | -3.9 | -1.0% | 2 | 5 | -0.1

Going on with the list.
SMILES | CtBP-E1A inh | D2 agonist | PINK1 modulator | Six1-Eya2 blk | TRPML1 inh | TRPML1 ag
CCCCOCCCNS(=O)(=O)c1ccccc1 | -11 | 2.4 | -2.6%[38.3 µM] | -3 | 22 | -0.1
CCc1ccc(/C=C2\Oc3ccc(C(=O)OC)cc3C2=O)cc1 | 2 | -6.0 | 1.0% | 2 | -3 | -0.3
CCOc1ccc(NC(=O)CN(C)S(=O)(=O)c2ccc(-c3ccc(=O)[nH]n3)s2)cc1 | -4 | 0.1 | 15% | -1 | 37 | -0.4
O=C(OCC(=O)N1CCN(C(=O)c2ccco2)CC1)c1ccccc1OCc1ccccc1 | 24 | -5.7 | 0.3% | 16 | 5 | 1.7
O=C(CCNC(=O)c1ccccc1)Nc1nc2ccccc2s1 | . | -1.0 | 1.7% | -4 | -9 | -0.5
Cc1ccc(S(=O)(=O)N(C)c2ccc(OCc3cccc(C)c3)cc2)cc1 | 45 | -7.1 | 0.6% | 21 | 32 | 1.7
COc1ccc(-c2nnnn2C(C)C)cc1S(=O)(=O)Nc1ccccc1 | -1 | -2.4 | 1.3% | 0 | . | .
Cc1ccc(C(=O)C(c2ccccc2)N2Cc3ccccc3C2=N)cc1 (stereo not drawn) | -24 | -5.1 | 12% | -28 | 17 | 1.5
COc1ccc(CCNS(=O)(=O)c2ccc(S(=O)(=O)N3CCCC3)cc2)cc1OC | 52 | -0.4 | 2.1%[38.3 µM] | 22 | -2 | 0.0
COc1cc(C(=O)NCc2nc3cccnc3n2Cc2ccc(C)cc2)cc(OC)c1OC | . | . | -0.1% | . | -6 | 0.6
COC(=O)c1ccc(CC(=O)c2nc3ccccc3s2)cc1 | 5 | -10 | 2.6% | -7 | 15 | -0.4
COc1ccc(C(=O)NNC(=O)C(=O)Nc2ccc(C)cc2)cc1 | -2 | -7.7 | 0.7% | 6 | 27 | 0.6
O=C(OC(C(=O)Nc1ccc([N+](=O)[O-])cc1Br)c1ccccc1)c1ccccc1 (stereo not drawn) | 2 | 0.1 | 2.7% | -24 | -5 | 1.1
COc1cc(/C=C2\C(=O)NN(c3ccc(C)cc3)C2=O)cc([N+](=O)[O-])c1O | -19 | -6.7 | 1.3% | 3 | -6 | -0.3
